Biofilm kill mix: clotrimazole potentiators killing C. albicans biofilm, primary screen, 4-compound mixtures; C. albicans biofilm persisters + clotrimazole, fluorescence viability; primary screen in compound mixtures of four per well; inhibition, % at 7.6 µM; actives 0.02% (n = 120,000);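 active = inhibition above 30.3% in the primary screen of four-compound pools, then above 30% when the compound was retested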;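 also: compounds exposed to preformed 24 h biofilms for 48 h; the number belongs to the whole pool; some results filed as inactive read as strong as hits; inactives centre near 12; 0% = biofilm with clotrimazole alone and 100% = kill control; retested singly at about 60 µM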
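Test system: C. albicans CAF4-2 wild-type biofilms; buffer or medium: RPMI/MOPS medium, pH 7.0; schedule: 24 h biofilm formation, then 48 h compound exposure, 37 °C; detection: Alamar Blue fluorescence; measure: percent inhibition of biofilm viability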
Active calls of the source: *.

SMILES	Biofilm kill mix
c1ccc(N=Nc2cn[nH]c2-c2ccco2)cc1	8
O=C(N[C@@H](Cc1ccccc1)C(=O)OCC(=O)N1CCOCC1)c1cccs1	16
Cc1ccc(N2C(=O)C(CN3CCCCC3)C2c2ccccc2)cc1 (configuration not stated)	10
COc1ccc(OCC(=O)N2c3ccccc3CCc3ccccc32)cc1	21
Cc1ccc(S(=O)(=O)N(C)C)cc1NC(=S)Nc1ccc2cn[nH]c2c1	8
COCCNC(=O)Nc1ccc(F)cc1	11
O=C(Nc1ccc(S(=O)(=O)N2CCCC2)cc1)c1ccc2c(=O)n3c(nc2c1)CCCCC3	12
CCOc1cc(CNCc2ccc(C(=O)O)cc2)ccc1OC	17
NCCCC[C@H]1CNC(=S)N1CCc1cccc(F)c1	16
C=CCNc1nc(Nc2ccc([N+](=O)[O-])cc2)nc(OC)n1	13

Individual results from the results shown:
Biofilm kill mix result of Cc1ccc(N2C(=O)C(CN3CCCCC3)C2c2ccccc2)cc1 (configuration not stated) → 10
Biofilm kill mix result of c1ccc(N=Nc2cn[nH]c2-c2ccco2)cc1 → 8
Biofilm kill mix result of O=C(Nc1ccc(S(=O)(=O)N2CCCC2)cc1)c1ccc2c(=O)n3c(nc2c1)CCCCC3 → 12
Biofilm kill mix result of C=CCNc1nc(Nc2ccc([N+](=O)[O-])cc2)nc(OC)n1 → 13
Biofilm kill mix result of NCCCC[C@H]1CNC(=S)N1CCc1cccc(F)c1 → 16

Following part
SMILES	Biofilm kill mix
COc1cc(C(=O)Nc2nnc(C(C)(C)C)s2)c([N+](=O)[O-])cc1OC	14
O=C(O)c1ccc(/C=N/Nc2nc3ccccc3[nH]2)cc1	5
Cc1cc(C)cc(N(C(=O)c2csnn2)C(C(=O)NC(C)(C)C)c2ccncc2)c1 (configuration not stated)	14
O=C(c1ccc(-n2cccn2)cc1)N1CCc2ccccc2C1	22
Cc1ccc(S(=O)(=O)NC(C)(C)CSc2ccccn2)cc1	14
COc1ccc(CCC(=O)NC2=NCCS2)cc1OC	9
CCOC(=O)C1=C(O)C(=O)N(Cc2cccnc2)C1c1ccc(C)cc1 (configuration not stated)	3
Cc1ccc(C)c(N2CC(O)(c3cccs3)[N+]3=C2CCCC3)c1 (configuration not stated)	-1
Cc1cc(C(=O)N/N=C/c2cn[nH]c2-c2ccccc2)cs1	16
O=C(CCN1C(=O)c2ccccc2C1=O)NNC(=O)c1ccc(Cl)cc1Cl	9

Exported as labelled records: part of the list above
CCOC(=O)C1=C(O)C(=O)N(Cc2cccnc2)C1c1ccc(C)cc1 (configuration not stated)
  Biofilm kill mix = 3

COc1cc(C(=O)Nc2nnc(C(C)(C)C)s2)c([N+](=O)[O-])cc1OC
  Biofilm kill mix = 14

Cc1cc(C(=O)N/N=C/c2cn[nH]c2-c2ccccc2)cs1
  Biofilm kill mix = 16

Cc1ccc(S(=O)(=O)NC(C)(C)CSc2ccccn2)cc1
  Biofilm kill mix = 14

Following part
SMILES	Biofilm kill mix
CCCn1c(=O)c2ccccc2n2c(SCC(=O)N3CCc4ccccc4C3)nnc12	13
COc1ccc(Cl)cc1NC(=O)NCc1ccco1	1
Cc1ccc(C)c(NC(=S)N/N=C2\CCc3ccccc32)c1	2
Cc1ccc(NC(=O)Cn2cnc3ccccc32)cc1C	8
Cc1noc(C)c1-c1nc(CS(=O)(=O)c2ccccc2)no1	7
O=C(CN(C1CCCCC1)S(=O)(=O)c1ccccc1)NCc1ccco1	16
COc1ccccc1OCCC(=O)OCC(=O)Nc1cc(S(=O)(=O)N(C)C)ccc1Cl	5
O=C(COC(=O)c1ccc2ccccc2n1)Nc1cccc(S(=O)(=O)NC2=NCCCCC2)c1	15
Cc1cc(-c2n[nH]c(=S)n2/N=C/C(Br)=C/c2ccccc2)n[nH]1	14
O=C1C(=O)N(Cc2ccco2)C(c2cccs2)/C1=C(\O)c1cccc([N+](=O)[O-])c1 (configuration not stated)	10
Cc1ccccc1NC(=S)N1CCCC1	-10
O=C(CNc1ccc2ccccc2c1)N/N=C/c1cc2ccccc2nc1Cl	14
C/C(CC(=O)Nc1ccc(Cl)c(C(F)(F)F)c1)=N\NC(=O)c1cc2ccccc2cc1O	18
COc1ccc(/C(C)=N/N=C2/NC(=O)CC(C(=O)O)S2)cc1F (configuration not stated)	25
CC(C)(C)c1ccc(C(=O)Nc2ccc(C=C(C#N)C#N)cc2)cc1	17
O=C(CN1C(=O)/C(=C/c2cccc(Br)c2)SC1=S)Nc1cccnc1	17
O=C(N/N=C/c1c(Cl)cccc1Cl)c1ccccc1F	-1
CC(NC(=O)c1ccc(N)cc1)c1ccccc1 (configuration not stated)	3
O=C(COC(=O)CNC(=O)C1CCCCC1)Nc1ccc2c(c1)OCCO2	8
O=C(NNC(=O)C1CCCO1)c1ccc(Br)cc1 (configuration not stated)	9
S=C1NCCNC(=S)NCCOCCOCCOCCN1	12
Cc1c(C(=O)N(Cc2ccc(N(C)C)cc2)C2CCS(=O)(=O)C2)oc2ccccc12 (configuration not stated)	7
Cc1nnc(SCc2cc([N+](=O)[O-])cc3c2OCOC3)n(N)c1=O	8
Oc1ccc(-c2nnc(Nc3cccc(O)c3)c3ccccc23)cc1	2
COc1ccc(OCC(=O)Nc2ccc(N3CCOCC3)cc2)c([N+](=O)[O-])c1	-2
CCOc1ccccc1OCCNC1CCCC1	8
Cc1ccc(-n2ncc(-c3nn[nH]n3)c2N)cc1	19
CCN(CC)CCCNC(=S)N(Cc1cccs1)Cc1cc2cc3c(cc2[nH]c1=O)OCCO3	24
CCOC(=O)c1ccc(-n2ccnc2)c(NC(=O)c2cccc(Br)c2)c1	18
CCOC(=O)c1c(NC(=O)CSc2cccc[n+]2[O-])sc(C(=O)Nc2ccccc2)c1C	10
CCOc1ccc(/C=C2\SC(=S)N(C)C2=O)cc1OC	7
O=C(Oc1ccc2cc(Br)ccc2c1)N1CCCCCC1	17
Cc1ccccc1-c1nnc(-c2ccccc2C)o1	20
CN(C)S(=O)(=O)c1cc(NC(=O)COC(=O)Cc2ccc(Br)cc2)ccc1Cl	16
COCCCNC(=O)C1CCC(CNS(=O)(=O)c2ccc(C)cc2)CC1 (configuration not stated)	11
Cc1ccc(CNC(=O)C(=O)NCCC2=CCCCC2)cc1	16
Cn1c(N)c(C(=O)COC(=O)c2cc(S(=O)(=O)N3CCCCC3)ccc2Cl)c(=O)n(C)c1=O	14
CCN(CC)C(=O)Cn1cc(SCC(=O)NCc2ccco2)c2ccccc21	9
O=C(N/N=C/c1ccccn1)c1cccs1	25
O=C(N/N=C/c1cc([N+](=O)[O-])ccc1O)C1CC1	18

Continued, starting with the last 2 of the part before.
SMILES	Biofilm kill mix
O=C(N/N=C/c1ccccn1)c1cccs1	25
O=C(N/N=C/c1cc([N+](=O)[O-])ccc1O)C1CC1	18
O=C(CSC1=NCCS1)Nc1cccc(F)c1	10
C/C=C/C(=O)Nc1nnc(C(C)C)s1	6
Cc1nc2ccc(Cl)cc2c(-c2ccccc2Cl)c1CC(=O)O	0
O=Nc1ccc(NOC(=O)c2ccccc2)cc1	13
COc1ccc(CCNC(=O)C(CC(C)C)NC(N)=O)cc1 (configuration not stated)	12
O=C(Cn1[nH]c(=O)c2ccccc2c1=O)Nc1cccc(S(=O)(=O)N2CCCCCC2)c1	11
C=CCNC(=S)/N=c1/ccccn1C	24
O=C(O)/C=C/C(=O)NNC(=O)c1cc(-c2ccccc2)n[nH]1	15
CCN(Cc1cc(=O)[nH]c2ccccc12)C(=O)c1ccc(C)cc1	23
Cn1c(=O)c2c(ncn2CC(=O)N/N=C/C(Br)=C/c2ccccc2)n(C)c1=O	14

Part of the list above, as a markdown table.
| SMILES | Biofilm kill mix |
| --- | --- |
| Cc1nc2ccc(Cl)cc2c(-c2ccccc2Cl)c1CC(=O)O | 0 |
| O=Nc1ccc(NOC(=O)c2ccccc2)cc1 | 13 |
| COc1ccc(CCNC(=O)C(CC(C)C)NC(N)=O)cc1 (configuration not stated) | 12 |

Following part
SMILES	Biofilm kill mix
CC1CCN(S(=O)(=O)c2ccccc2[N+](=O)[O-])CC1	17
COc1ccccc1C(=O)NNC(=O)c1ccc(F)cc1	6
CC[C@@H]1CC=C[C@H]2[C@H]1C(=O)N(Cc1ccccc1)[C@H]2c1ccoc1	17
COc1ccc(NS(=O)(=O)c2cccc(C(=O)N/N=C/c3ccccn3)c2)cc1	1
CC(=O)c1cccc(-n2nnnc2SCC(=O)NNC(=O)C2CCCCC2)c1	6
O=c1[nH]c(-c2ccc(Cl)cc2)cs1	-1
COc1ccc(/C=N/NC(=O)Nc2cccc3nsnc23)cc1OC	0
Cc1nc2c(C(=O)NCc3cccs3)cnn2c(C)c1Cc1ccccc1	9
CCc1ccc(N(C(=O)c2csnn2)C(C(=O)NC(C)(C)CC)c2ccccn2)cc1 (configuration not stated)	5
CCCn1c(CCc2ccccc2)n[nH]c1=S	13
CC(=O)NCCc1nc2ccccc2n1Cc1cc(C)ccc1C	1
COC(C/C=C/[C@H](O)COCc1ccccc1)OC	13
COc1ccccc1CC(=O)N1CCCC(CCC(=O)NCc2ccccc2F)C1 (configuration not stated)	15
CCC1=NN(C(=O)c2cccc(Br)c2)C(O)(c2ccc(Br)cc2)C1 (configuration not stated)	18
O=C(CNC(=O)c1ccccn1)N/N=C/c1ccc2c(c1)OCO2	25
Cc1ccc(NC(=O)/C(=C\c2ccccc2)NC(=O)c2ccco2)cc1	34
O=C(C1=NN[C@@H]2C(=O)N(c3cccc(C(F)(F)F)c3)C(=O)[C@H]12)c1ccc2ccccc2n1	12
O=C(NCCc1ccccc1)C(NS(=O)(=O)c1cccc2nsnc12)c1ccccc1 (configuration not stated)	12
CCOC(=O)N1CCN(C(=O)/C(=C/c2ccc(Cl)cc2)NC(=O)c2ccccc2)CC1	15
COc1ccc(C2SCCN2C(=S)Nc2cccc(C(F)(F)F)c2)cc1 (configuration not stated)	15
C=CCN1CN=C(NS(=O)(=O)c2ccc(NC(C)=O)cc2)NC1	8
O=C1/C(=C/c2cccc(Cl)c2)CSc2sccc21	14
COc1cccc(-c2cc(=O)c3cc(NC(C)=O)ccc3[nH]2)c1	15
CC(=O)Nc1ccc(S(=O)(=O)/N=C2/NC(=O)/C(=C\c3ccco3)S2)cc1	16
CCOC(=O)/C(=C\C=C\c1ccccc1)NC(=O)c1ccccc1	6
COc1ccc(NC(=S)NNS(=O)(=O)c2ccc3ccccc3c2)c(OC)c1	13
Cc1ccc(CNC(=O)CSCc2cccc(F)c2)cc1	11
CC(Oc1ccc(Cl)cc1)C(=O)Nc1sccc1C(N)=O (configuration not stated)	15
CC(C)/C=N\NC(=O)CCCCC(=O)N/N=C/C(C)C	19
CCc1nnc(NC(=O)c2csc3c2CCC(C)C3)s1 (configuration not stated)	4
CCn1cc(CNC(=O)c2cc(-c3cc(OC)ccc3OC)nc3ccccc23)c(C)n1	14
COc1ccc(N2CCN(C(=O)CCc3c[nH]c4ccccc34)CC2)cc1	-6
CCN(CC)CCN(C(=O)c1ccc(N2C(=O)CCC2=O)cc1)c1nc2cc3c(cc2s1)OCCO3	13
CN(C(=O)c1ccccc1C(=O)OCC(=O)NCc1ccccc1)C1CCCCC1	1
C=CCC1C=C(Cc2ccccc2)CC(CC=C)N1 (configuration not stated)	11
CCOC(=O)NC(NC(=S)Nc1ccccc1OC)C(Cl)(Cl)Cl (configuration not stated)	9
S=C(NCCN1CCOCC1)Nc1ccc(Cl)cc1Cl	10
CCOc1ccc(-n2c(O)c(/C=N/NC(=O)C3COc4ccccc4O3)c3ccccc3c2=O)cc1 (configuration not stated)	8
CCN(CC)S(=O)(=O)c1ccc(C(=O)Oc2cc(C)[nH]c(=O)c2[N+](=O)[O-])cc1	3
O=C(COc1ccccc1[N+](=O)[O-])Nc1cc(Cl)ccc1C(=O)O	15
Cn1c(-[n+]2c(-c3ccccc3)cc(-c3ccccc3)cc2-c2ccccc2)nc2c([N+](=O)[O-])cccc21	24
CCOC(=O)c1cccnc1NC(=O)c1ccncc1	6
O=C(Cn1cnc2cc([N+](=O)[O-])ccc2c1=O)NCCc1ccc(Cl)cc1	-17
COc1ccc(CNC(=O)CCSCc2ccccc2Cl)c(OC)c1	15
O=C1CNC(=O)/C1=C\c1ccc(O)cc1	17
O=C(COc1ccccc1)NC(=S)Nc1cccc(NC(=O)c2ccccc2Cl)c1	10
Cc1cc(C)c(NC(=O)CSc2ccc(-c3cccnc3)nn2)c(C)c1	13
Cc1ccccc1CNC(=O)Cc1ccccc1[N+](=O)[O-]	11
CC(=O)Nc1ccc(C(=O)OCC(=O)NCc2ccccc2)cc1	0
CCOC(=O)c1ccc2nc(CCC(=O)N[C@H](C(=O)OC)C(C)C)c(=O)n(CC)c2c1	2

Carrying on:
SMILES	Biofilm kill mix
CCn1c(-c2ccccc2)csc1=Nc1ccc(O)cc1	9
O=[N+]([O-])c1c(NCCO)cc(N2CCN(Cc3ccc4c(c3)OCO4)CC2)c2nonc12	8
c1ccc(-c2cn(-c3ccccc3)c3ncnc(N4CCCCC4)c23)cc1	18
C=CCn1cnc2scc(-c3ccc(C)c(C)c3)c2c1=O	18
Cn1cccc1/C=N/NC(=O)c1cccnc1	2
Cc1c(C(=O)c2ccccc2)c(=O)n(C)c(=O)n1C	19
COc1ccc2c(C#N)c3ccccn3c2c1	5
Cc1ccc(NC(=O)c2cc(NC(=O)c3ccccc3C(=O)O)ccc2N2CCCCC2)cc1	9
CCN(CC)CCNc1nc(-n2nc(C)cc2C)nc2sc3c(c12)CC(C)(C)OC3	0
O=C(NCC1CCCO1)c1cc2c(s1)CCC2 (configuration not stated)	-5
O=C(CN1C(=O)c2cccc3cccc(c23)C1=O)N1CCCCC1	19
CCCCn1c(N)c(NCC(C)C)c(=O)[nH]c1=O	11
Nc1cccc2c1C(=O)N(CC(=O)NC13CC4CC(CC(C4)C1)C3)C2=O	14
O=C(O)CSc1c(-c2ccccc2)c2cc(Cl)ccc2[nH]c1=O	18
CC(=O)c1cccc(NC(=S)NC(=O)c2ccc(Br)cc2)c1	3
CC(=O)/C(N=Nc1ccc(-n2ccc(C(F)(F)F)n2)cc1)=C(\C)O	23
CCc1nnc(NC(=O)CSc2nc3ccc(OC)cc3[nH]2)s1	0

Source: PubChem

Not all compounds are listed; rates above refer to the full screens.
